# Assay outcomes: PubChem BioAssay, National Center for Advancing Translational Sciences (NCATS)
# D2 PAM: Beta-Arrestin HTS for Positive Allosteric Modulators of the Human D2 Dopamine Receptor: Potentiators | D(2) dopamine receptor (Homo sapiens), P14416 | DiscoveRx D2 beta-arrestin cells, luminescence, 90 min; 100% = 57 uM dopamine signal | potentiation, % (concentration not given with the values) | 360,000 compounds, 0.23% hits | AID 624464, 2012; active = potentiation of 50% or more; inconclusive = 30% to 50%; inactive = 30% or less;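 also: tested on top of an EC20 dose of dopamine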
# Target sequence (P14416 whole entry, looked up): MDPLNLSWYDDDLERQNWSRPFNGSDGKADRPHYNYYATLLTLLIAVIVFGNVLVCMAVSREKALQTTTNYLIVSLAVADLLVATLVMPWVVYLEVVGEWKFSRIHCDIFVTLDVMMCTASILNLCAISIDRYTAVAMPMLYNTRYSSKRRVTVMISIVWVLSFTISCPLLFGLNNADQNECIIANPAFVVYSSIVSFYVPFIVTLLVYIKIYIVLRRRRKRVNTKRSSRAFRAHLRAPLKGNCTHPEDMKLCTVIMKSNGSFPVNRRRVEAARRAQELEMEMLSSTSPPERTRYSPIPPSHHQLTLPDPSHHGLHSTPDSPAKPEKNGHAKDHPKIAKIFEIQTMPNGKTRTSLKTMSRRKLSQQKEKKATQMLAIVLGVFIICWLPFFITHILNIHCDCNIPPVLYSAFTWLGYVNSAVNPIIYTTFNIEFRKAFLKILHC
#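 PathHunter beta-arrestin assay in DiscoveRx D2 cells. Compounds were added with an EC20 of dopamine (50 nM final) for 90 min at 37 deg C. Luminescence was read 1 h after detection reagent, with 57 uM dopamine as the EC100 control.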
# PINK1 modulator: A Quantitative High throughput Screen to Identify Chemical Modulators of PINK1 Expression | Potency, µM (doses to about 76.6 µM), for the others: at the top dose activation (PINK1 increase), hits mostly activators | 410,000 compounds, 0.2% hits | PINK1 immunofluorescence, high-content cytometry, 24 h; active = well fitted activation curve with a large enough effect; inconclusive = small, poorly fitted or top-dose-only effect; inactive = flat fitted curve, though single readings scatter; cell line not stated here;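 also: potency is read from the fitted curve at half-maximal effect; % of control where 0% means no effect; nearly all actives have a fitted effect of over 65% in size; a mitochondrial uncoupler was the plate control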
#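 Stable cell line, 250 cells/well, 12 h attachment; compounds pinned at 5 concentrations, 24 h; CCCP control. Fixed with nuclear dye, primary antibodies 12 h at 10 degrees C, secondary plus cell stain; laser-scanning cytometer read.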
# D2 ag: Beta-Arrestin HTS for Positive Allosteric Modulators of the Human D2 Dopamine Receptor: Agonists; D(2) dopamine receptor (Homo sapiens), P14416; DiscoveRx PathHunter D2 beta-arrestin, luminescence, 90 min; 100% = 57 uM dopamine signal; activation, % (concentration not given with the values); 360,000 compounds, 0.084% hits; AID 624465, 2012; in the data active = activation above about 40%; inconclusive = about 15% to 40%; inactive = below about 15%; also: the text of the record calls up to 30% inactive
#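 Agonist mode: compounds alone added to overnight-plated D2 PathHunter cells for 90 min at 37 C, with 57 uM final dopamine (EC100) defining full response. Beta-arrestin recruitment detected by chemiluminescent reagent, read after 1 h at ambient temperature.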
# Six1-Eya2 inh: qHTS Assay for Inhibitors of the Six1/Eya2 Interaction; Homeobox protein SIX1 (Homo sapiens) + Protein phosphatase EYA2 (Homo sapiens), …; AlphaScreen GST-Six1/His-Eya2 binding, biochemical; hits give low values; control for the full effect not named in the record; activity change, % (test concentration not listed); 360,000 compounds, 0.56% hits; AID 651725, 2012; in the data active = activity change below about -65%; inconclusive = about -30% to -65%; inactive = above about -30%; also: % is scaled to controls: 0 for no effect and ±100 for the full control effect
#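 Compounds are tested against tagged Six1 and Eya2 proteins bridged by glutathione donor and nickel acceptor beads; after a one-hour incubation at 37 °C without light, AlphaScreen emission is recorded.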
# TRPML1 inh: qHTS for Inhibitors of the Human Mucolipin Transient Receptor Potential 1 (TRPML1); TRPML1-inducible cells, Ca2+ dye fluorescence, FDSS; hits give low values; inhibition of EC80 agonist-evoked calcium signal; activity change, negative = inhibition, % (concentration not given with the values); Mucolipin-1 (Homo sapiens), Q9GZU1; 390,000 compounds, 0.02% hits; AID 624415, 2012; in the data active means activity change below about -50%; inconclusive means about -30% to -50%; inactive means above about -30%;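 also: stimulus is agonist 54-4 at its EC80 concentration; % is scaled to controls: 0 for no effect and ±100 for the full control effect; the text of the record puts the active cut at -80%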
# Target sequence (Q9GZU1 whole entry, looked up): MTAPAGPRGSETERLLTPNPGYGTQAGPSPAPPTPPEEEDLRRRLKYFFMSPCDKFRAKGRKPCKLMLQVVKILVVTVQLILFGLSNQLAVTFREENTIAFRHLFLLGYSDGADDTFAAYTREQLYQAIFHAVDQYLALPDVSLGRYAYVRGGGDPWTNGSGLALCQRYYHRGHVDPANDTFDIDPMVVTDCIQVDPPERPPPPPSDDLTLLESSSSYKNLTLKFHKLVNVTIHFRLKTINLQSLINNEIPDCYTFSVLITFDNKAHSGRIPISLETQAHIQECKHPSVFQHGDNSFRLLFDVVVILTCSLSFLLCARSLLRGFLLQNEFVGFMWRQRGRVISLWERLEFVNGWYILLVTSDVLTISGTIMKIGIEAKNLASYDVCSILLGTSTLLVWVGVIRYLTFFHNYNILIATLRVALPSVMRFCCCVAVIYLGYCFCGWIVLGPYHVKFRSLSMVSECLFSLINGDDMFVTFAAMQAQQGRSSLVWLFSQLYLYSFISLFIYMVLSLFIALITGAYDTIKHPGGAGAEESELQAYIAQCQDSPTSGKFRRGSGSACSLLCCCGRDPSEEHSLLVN
#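 Tet-induced TRPML1-DL cells loaded with Ca8 no-wash calcium dye were read kinetically on FDSS. Compound addition was followed by EC80 agonist 54-4 (4 uM final); inhibition was read over 110 s.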
# TRPML1 ag: qHTS for Agonists of the Human Mucolipin Transient Receptor Potential 1 (TRPML1) | Mucolipin-1 (Homo sapiens), Q9GZU1 | TRPML1-expressing cells, Ca2+ dye fluorescence, FDSS; host cell line not named in the record; reference of the full effect not given here | activation, % (no concentration beside the values) | 410,000 compounds, 0.12% hits | AID 624414, 2012; in the data active = activation above about 50%; inconclusive = about 30% to 50%; inactive = below about 30%; also: 0% is about no effect; the text of the record puts the active cut at 80%
#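 Tet-induced TRPML1-DL cells, 1,500 per well, cultured overnight, were loaded with a no-wash Ca2+ dye for 45–90 min. Calcium fluorescence was recorded on the FDSS for 110 s after compound addition, before the EC80 agonist (4 uM 54-4) was added.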
# The depositor's hits bear a star; ? = inconclusive; · = no result given; [ ] = dose if it differs, or a comment.
SMILES,D2 PAM,PINK1 modulator,D2 ag,Six1-Eya2 inh,TRPML1 inh,TRPML1 ag
COc1ccc(N=C2SCC(c3ccccc3)=NN2C)cc1,-4,0.9%,-0.1,-4,88,0.9
O=C1NC(c2ccccc2Cl)Nc2ccccc21 (stereo not given),7,3.4%,0.5,7,-6,-1.0
Cn1ncc(Cl)c1C(=O)NCc1ccco1,-6,-1.2%,-1.3,1,3,0.1
CCN(CC)C(=O)C(=O)Nc1ccc(Oc2ccccc2)cc1,-4,-0.4%,-4.3,2,-1,?
CC(C)Oc1ccc(C(=O)OC(C)C(=O)NC2CCCCC2C)cc1 (stereo not given),-13,-0.4%,-0.3,-1,32,2.4
CCOC(=O)c1ccc(NC(=O)C2=C(C)Nc3nc(CCCO)nn3C2c2cccc(C)c2)cc1 (stereo not given),-2,1.5%,4.9,1,-12,0.5
Cc1c(NS(=O)(=O)N2CCCCC2)c(=O)n(-c2ccccc2)n1C,-6,8.4%[38.3 µM],-1.4,0,-9,0.2
NC(=O)C1CCN(C(=S)c2ccc(-c3ccc(Br)cc3)o2)CC1,-7,1.4%,-2.2,-9,32,-1.0
C=CCN=C1SCC(=O)N1S(=O)(=O)c1ccccc1,13,1.2%,-3.4,6,34,3.5
COc1ccc(/C=C2\SC(=O)N(CCNC(=O)Cn3[nH]c(=O)c4ccccc4c3=O)C2=O)cc1,-5,?,-2.3,5,-1,-0.5
CCOC(=O)C1CCN(C2=C(NS(=O)(=O)c3ccc(Cl)cc3)C(=O)c3ccccc3C2=O)CC1,1,?,4.5,?,8,2.4
NNC(=O)/C(=N/Nc1ccccc1)S(=O)(=O)c1ccc(Cl)cc1,3,-2.3%,-0.3,-5,25,1.1
CCOc1ccc(C(=O)N2CCN(CCc3ccccn3)CC2)cc1,·,1.8%,·,·,-7,0.1
CCc1noc(C)c1C(=O)NCCN1C(=O)S/C(=C\c2ccc(OC)cc2)C1=O,2,10%,0.8,-4,7,3.5
Cc1c(C(c2ccc(N(C)C)cc2)c2c(C)n(C)n(-c3ccccc3)c2=O)c(=O)n(-c2ccccc2)n1C,-1,-1.4%,-6.0,?,3,1.5
O=[N+]([O-])C(=C1NCCN1)C(Cl)=C(Cl)Cl,-8,-0.2%,-5.1,12,4,0.7
CC(C)CN1CC(C)C(=O)N(c2ccccc2)C1=S (stereo not given),-5,-0.9%,-4.0,7,-11,-0.1
CCO/C(C)=N/Oc1cnc2ccccc2c1,2,2.5%,4.2,4,·,-0.4
O=C(CCc1nnc(Cc2ccc(-c3ccccc3)cc2)o1)NCC1CC1,-2,1.0%,5.8,0,-8,1.7
CCOc1ccc(CCNC(=O)COc2cccc(-n3cnnn3)c2)cc1OCC,0,0.9%,-1.1,0,4,-0.6
COc1ccc(CNC(=O)C(c2ccco2)N(C(=O)CNS(=O)(=O)c2ccccc2)c2ccccc2C)cc1 (stereo not given),8,2.4%,1.5,-11,14,1.7
Cc1ccc(S(=O)(=O)NC(=O)C2(C)CCN2C(=O)COc2ccc(Cl)cc2)nc1 (stereo not given),-12,1.5%,-1.9,22,-18,-0.6
Cc1ccccc1-n1sc2cc(F)ccc2c1=O,-19,-2.0%,-7.3,-1,-10,5.3
CCCN1CCN(C(=O)CCS(=O)(=O)c2cc3c(cc2Cl)NC(=O)CO3)CC1,-7,1.3%,-4.0,-2,10,0.2
CC1=C(C(=O)N(C)C)CC(CC(=O)NC2CC2)C(=O)N1Cc1ccccc1 (stereo not given),·,1.5%,-2.0,2,·,·

# Single entries from the list:
# CC(C)CN1CC(C)C(=O)N(c2ccccc2)C1=S (stereo not given) in D2 ag shows -4.0
# CCCN1CCN(C(=O)CCS(=O)(=O)c2cc3c(cc2Cl)NC(=O)CO3)CC1 in TRPML1 inh shows 10
# Cc1ccc(S(=O)(=O)NC(=O)C2(C)CCN2C(=O)COc2ccc(Cl)cc2)nc1 (stereo not given) in PINK1 modulator shows 1.5%
# CC1=C(C(=O)N(C)C)CC(CC(=O)NC2CC2)C(=O)N1Cc1ccccc1 (stereo not given) in Six1-Eya2 inh shows 2
# CCOC(=O)c1ccc(NC(=O)C2=C(C)Nc3nc(CCCO)nn3C2c2cccc(C)c2)cc1 (stereo not given) in Six1-Eya2 inh shows 1
# COc1ccc(CNC(=O)C(c2ccco2)N(C(=O)CNS(=O)(=O)c2ccccc2)c2ccccc2C)cc1 (stereo not given) in Six1-Eya2 inh shows -11

# Following part
SMILES,D2 PAM,PINK1 modulator,D2 ag,Six1-Eya2 inh,TRPML1 inh,TRPML1 ag
CCOC(=O)c1nc(C(=O)NCc2ccc(C)cc2)nc2ccccc12,-54,0.5%,-1.7,-22,8,-1.3
CCN(CC)c1ccc(NC(=O)c2cnc3c(-c4ccccc4)c(C)nn3c2C)c(C)c1,·,3.3%,·,·,26,2.7
CC(=O)c1ccc2c(c1)OCCOCCOCCOCCO2,5,0.4%,-4.9,-6,5,0.7
c1cnc2ccc(C(c3nnnn3C3CCCC3)N3CCN4CCCC4C3)cc2c1 (stereo not given),-2,-0.6%,-3.3,-12,-12,2.5
CC1(C)Oc2ccc3ccc(=O)oc3c2/C(=N/O)C1=O,1,-0.3%,1.8,5,23,3.0
N#CCSc1nc(-c2ccccc2)cs1,-1,6.4%,0.0,18,15,2.6
CC(C)(C)C(=O)COC(=O)c1cc(S(=O)(=O)N2CCCCC2)ccc1N1CCOCC1,-16,2.1%,1.3,11,-2,-1.0
COc1cc(Cl)c(NC(=O)CC(C)S(=O)(=O)c2cc3c(cc2C)NC(=O)CO3)c(OC)c1 (stereo not given),·,1.5%,·,·,29,1.9
Cc1ccc(-c2csc(Nc3ccc(C(=O)O)cc3)[n+]2Cc2ccccc2)cc1,1,-1.2%,-2.5,1,0,0.2
O=C(NCC(=O)N1CCCCC1)c1ccc(Cl)cc1Cl,-10,0.5%,-1.4,4,-12,0.0
COC(=O)C1C(=O)NCC1c1ccc(OC)cc1 (stereo not given),-12,1.2%[38.3 µM],-0.7,2,0,-0.6
Cc1ccc(NS(=O)(=O)c2c(F)cc(F)c(Cl)c2F)cc1S(=O)(=O)N1CCOCC1,-9,0.9%,7.3,38,-6,0.0
O=C1/C(=C/c2cccs2)CCC/C1=C\c1cccs1,-16,3.6%,5.7,?,-13,12
CC1CN(c2ccccc2)NC1=O (stereo not given),-23,1.9%,0.8,-4,-5,0.6
C/C(=N/NC(=O)CNC(=O)c1cccnc1)c1ccco1,-15,1.2%,0.0,9,9,0.3
CCOc1ccc(OCc2cccc(C(=O)O)c2)cc1,-1,4.6%[38.3 µM],2.8,2,-1,-0.3
O=C(/C=C/c1ccc2c(c1)OCO2)Nc1ccc(Cl)cn1,-10,12%,-17,-2,-6,-0.7
Cc1ccc(-c2c(C(=O)NCCc3ccccc3)oc(=O)c3ccccc23)cc1,·,2.8%,·,·,43,4.5
COc1cc(CN2CCCCC2C(=O)Nc2ccc(Oc3ccccc3)nc2)ccc1O (stereo not given),-26,4.8%,-1.4,-6,-2,0.4
O=C(NCC(c1cccnc1)N1CCN(c2ccc(F)cc2)CC1)c1cccc(Cl)c1 (stereo not given),7,0.8%,2.6,-5,8,0.2
O=C(Nc1ccc(Cl)cc1)N1CCC(CO)(Cc2ccccc2)CC1,-3,4.9%,3.4,0,14,-0.5
COC(=O)C(C)(C(=O)OC)c1ccccc1[N+](=O)[O-],2,-1.0%,-2.4,1,-6,2.7
O=C1CC(c2ccc(F)cc2F)c2cc3c(cc2N1)OCO3 (stereo not given),·,0.7%,·,·,5,0.3
O=C(CSc1nnnn1C1CCCCC1)N1CCc2ccccc21,-16,·,-2.2,-1,-9,-0.2
CC(=O)C1=C(O)C(=O)N(c2ccccn2)C1c1cccc(F)c1 (stereo not given),1,1.5%,-9.3,4,·,·

# Ordered by SMILES length (ascending): some entries from above.
SMILES,D2 PAM,PINK1 modulator,D2 ag,Six1-Eya2 inh,TRPML1 inh,TRPML1 ag
CC1CN(c2ccccc2)NC1=O (stereo not given),-23,1.9%,0.8,-4,-5,0.6
CC(=O)c1ccc2c(c1)OCCOCCOCCOCCO2,5,0.4%,-4.9,-6,5,0.7
COC(=O)C(C)(C(=O)OC)c1ccccc1[N+](=O)[O-],2,-1.0%,-2.4,1,-6,2.7

# Next section:
SMILES,D2 PAM,PINK1 modulator,D2 ag,Six1-Eya2 inh,TRPML1 inh,TRPML1 ag
CCOc1ccccc1C(=O)Nc1nn[nH]n1,-2,0.0%,3.3,-12,-6,2.6
Cc1ccc(CN2CC(C(=O)NC3CCCC(C)C3C)CC2=O)cc1 (stereo not given),0,-1.6%,-4.7,9,-1,0.0
CCC1CCC(C(=O)NNC(=O)c2cc(-c3ccco3)[nH]n2)CC1 (stereo not given),2,11%,-1.3,8,35,-1.3
CCc1ccc(-c2nc(SCC(=O)N(CCOC)c3c(N)n(Cc4ccccc4)c(=O)[nH]c3=O)n[nH]2)cc1,-26,-1.3%,-1.7,2,9,-0.4
Cc1cccc(C)c1NC(=O)CNC(=O)C1COc2ccccc2O1 (stereo not given),-6,-0.1%,-1.6,-4,-7,-1.1
COc1ccc(/C(C)=C2/SC(=S)N(CCC(=O)O)C2=O)cc1,?,0.9%[38.3 µM],0.5,-11,-1,0.3
Cc1ccn2c(Nc3ccc(C(C)C)cc3)c(-c3cccs3)nc2c1,·,5.8%,·,·,4,2.1
O=c1cc(CSc2nnc(C3CC3)n2Cc2ccccc2)nc2sccn12,-5,-0.8%,-2.4,20,-6,2.6
O=C(Nn1c(-c2ccccc2)nc2ccccc2c1=O)c1ccc([N+](=O)[O-])cc1,-5,-0.7%,2.1,-10,4,-0.6
CCOC(=O)C1(C(=O)OCC)COC(=O)C2(CC)OC21 (stereo not given),-9,-1.4%,-2.0,6,34,0.1
CN(c1ccccc1)S(=O)(=O)c1cc(C(=O)Nc2ccccc2N2CCOCC2)ccc1Cl,6,0.8%,3.0,-2,19,2.1
COC(=O)[C@@H](Cc1ccccc1)NC(=O)NCCc1c[nH]c2ccccc12,-12,1.0%,-3.7,-4,-1,-0.9
CSCC[C@H](NS(=O)(=O)c1ccc(C(C)=O)cc1)c1nnc2ccccn12,0,-1.0%,-1.9,-11,-6,0.8
COc1ccc(C(O)c2ncc(-c3cccc(C(F)(F)F)c3)[nH]2)cc1 (stereo not given),-16,2.4%,-2.7,-13,·,-0.9
CC1=C(C(=O)Nc2cc(C(=O)N3CCN(c4cccc(C)c4C)CC3)ccc2C)SCCO1,-7,?,-1.0,-16,-5,2.0
